MT1-MMP act inh: blocks activation of human MT1-MMP; GFP/RFP ratio change, % at 20 µM; hit rate 0.061% among 360,000; AID 651647; HT1080 RFP-PRO-GFP cells, GFP/RFP ratio fluorescence, overnight; percent of plate control window, DMSO zero; P50281;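 active = GFP/RFP ratio change of at least 30% with cell ATP level not reduced by more than half and red fluorescence within 50% of control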; note: strong numbers were not always called active
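Assay system: HT1080 RFP-PRO-GFP cells | Dosing: 20 µM single dose, 1% DMSO | Incubation: Cells overnight before dosing, compound overnight, 37 °C, 5% CO2 | Evaluation: GFP/RFP fluorescence ratio | Control set: DMSO-only wells and HT1080 RFP-L50D-GFP cell wells as references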
eIF4H inh: inhibitors of RNA binding by human eIF4H | eIF4H fluorescence polarization binding assay | inhibition, % at 35 µM | hit rate 0.94% among 290,000;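 active = 50% or more with normal probe brightness, or confirmed in later tests; about a fifth of its hits are not listed in these tables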;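 note: calls also rest on retests at 20 µM and on dose response follow-up; 0% = protein and probe with vehicle and 100% = probe without protein; strong numbers were not always called active; many hits fall short of the cut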
Rce1 inh: inhibitors of yeast Ras-converting enzyme. Q03530. yeast membranes, quenched prenylated peptide cleavage fluorescence. calls only. hit rate 0.27% among 290,000. AID 2563;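 active = fall in fluorescence gain of 50% or more versus controls, with final raw signal at or below 3038400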;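 note: plate controls were neutral control wells for no effect and wells lacking membranes for full effect; tested at 10 µM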
Target sequence (Q03530 whole entry, looked up): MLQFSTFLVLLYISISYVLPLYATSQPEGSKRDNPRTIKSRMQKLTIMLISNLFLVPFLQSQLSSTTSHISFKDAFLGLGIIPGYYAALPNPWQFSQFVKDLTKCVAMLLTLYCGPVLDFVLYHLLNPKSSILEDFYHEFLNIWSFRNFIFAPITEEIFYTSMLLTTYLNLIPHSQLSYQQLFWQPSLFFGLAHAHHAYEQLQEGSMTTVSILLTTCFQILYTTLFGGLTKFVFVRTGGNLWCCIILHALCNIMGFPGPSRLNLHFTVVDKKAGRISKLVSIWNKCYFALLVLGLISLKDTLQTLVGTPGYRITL
HIV Env fusion: blocks HIV Env-driven cell-cell fusion | HeLa-JRFL Env/CEM21 cell fusion, luciferase | inhibition, % at 12.3 µM | hit rate 1.1% among 360,000;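 active = mean replicate inhibition score of at least 50 and every replicate individually at or above 50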;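 note: 0% = plate neutral controls and 100% = maraviroc near 300 nM; one replicate is shown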
CSC inhib: cancer stem cell inhibition; cancer stem cell-like cells viability, luminescence; inhibition, % at 7.5 µM; hit rate 1.1% among 300,000;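 active = mean at 75% or more and at least half the replicates too; tested in HMLE shEcad cells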;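 note: 0% = median of negative and 100% = median of positive control wells; the first replicate is given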
Yeast UUG start: modulators of start codon recognition fidelity in yeast; S. cerevisiae UUG-firefly luciferase reporter, luminescence/redox ratio; activity score, % at 18.7 µM; hit rate 0.13% among 350,000;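 active = replicate mean at a twofold rise or more, about +100% in these data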;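 note: firefly luciferase made from a UUG start codon reports start codon fidelity; reporter light over untreated wells divided by growth signal over untreated wells; some hits fall short of that in this replicate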
PABP polyA inh: blocks human PABP binding to poly(A) RNA; P11940; fluorescence polarization; inhibition, % at 35 µM; hit rate 1% among 290,000;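 active = 50% or more with normal probe brightness, or confirmed in later tests; about a fifth of its hits are not listed in these tables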;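 note: calls also rest on retests at 20 µM and on dose response follow-up; controls were probe without protein and protein plus probe with vehicle; some compounds called inactive have numbers as strong as hits; many hits fall short of the cut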
Target sequence (P11940 whole entry, looked up): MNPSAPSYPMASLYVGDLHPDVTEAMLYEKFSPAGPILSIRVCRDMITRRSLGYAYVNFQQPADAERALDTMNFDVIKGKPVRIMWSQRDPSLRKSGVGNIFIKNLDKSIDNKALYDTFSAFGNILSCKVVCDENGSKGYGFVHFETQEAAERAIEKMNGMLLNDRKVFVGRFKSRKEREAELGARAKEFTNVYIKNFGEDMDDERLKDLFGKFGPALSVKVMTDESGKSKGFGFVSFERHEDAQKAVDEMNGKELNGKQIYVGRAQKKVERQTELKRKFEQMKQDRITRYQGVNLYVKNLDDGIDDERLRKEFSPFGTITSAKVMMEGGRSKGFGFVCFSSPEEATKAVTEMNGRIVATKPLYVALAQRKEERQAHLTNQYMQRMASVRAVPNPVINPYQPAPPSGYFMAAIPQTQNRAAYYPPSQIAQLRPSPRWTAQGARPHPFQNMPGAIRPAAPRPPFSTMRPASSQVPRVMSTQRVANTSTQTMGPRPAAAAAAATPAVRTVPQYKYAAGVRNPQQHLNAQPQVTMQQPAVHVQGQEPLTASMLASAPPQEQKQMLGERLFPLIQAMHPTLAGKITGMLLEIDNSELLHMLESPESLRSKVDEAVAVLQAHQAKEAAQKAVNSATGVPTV
MT1-MMP act inh RFP: second read-out of MT1-MMP act inh, no call of its own (marks repeat the call); RFP signal change, %; measured here: RFP expression control read;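 0 = vehicle wells; hits needed this value within 50% of zero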
* marks the source's active call; other numbers are inactive results; i = inactive; . = not tested or not shown. Only part of the results is shown; the hit share may differ from the screen's.

SMILES	MT1-MMP act inh	MT1-MMP act inh RFP	eIF4H inh	Rce1 inh	HIV Env fusion	CSC inhib	Yeast UUG start	PABP polyA inh
CC(/C=N/NC(=O)CNc1n[nH]c(=O)[nH]c1=O)c1ccccc1 (stereo unspecified)	-4	3	-4	i	13	-13	-9	4
Cc1ccccc1Nc1nc(N)nc(CN2CCN(C(=O)c3ccccc3)CC2)n1	2	3	-7	i	10	0	.	-6
CCCCN1C(=N)N([C@@H](C)CN2CCC[C@H]2CN2C(N)=NC[C@@H]2Cc2ccccc2)C[C@H]1[C@H](C)CC	3	6	.	.	-4	-2	-4	.
CCOC(=O)C1CCCCN1Cc1cccc(OC)c1OC (stereo unspecified)	-4	-3	5	i	-20	.	-12	43
O=C(O)c1ccccc1C(=O)Nc1ccc(Br)c(C(F)(F)F)c1	0	3	-8	i	15	19	.	5
CC(Oc1cccc(Br)c1)C(=O)NNC(=O)c1ccccn1 (stereo unspecified)	10	-1	.	.	.	38	-49	.
O=C(c1ccccc1)N1CCCN(c2nccc(C(F)(F)F)n2)CC1	2	2	-4	i	12	-9	-3	8
CN1CCN(C2=CC(=O)OC23CCCCC3)CC1	2	7	-1	i	.	-13	-8	-7
O=C(CCNS(=O)(=O)c1ccccc1)OCC(=O)c1ccc(Br)cc1	0	3	.	i	-8	-10	.	.
Cc1cc(NC(=O)CSc2nc3c(C)ccc(C)c3cc2C#N)no1	-44	0	-17	.	-26	-4	-5	-2
Cc1c(C(=O)NNC(=O)c2ccncc2)oc2ccccc12	2	5	.	.	.	-3	-14	.
NC(=O)CC(NC(=O)c1ccc(Br)cc1)c1ccc(NCc2ccc(F)c(F)c2)c([N+](=O)[O-])c1 (stereo unspecified)	6	-5	-8	i	-18	58	-20	-16
O=C(c1cccc(N2C(=O)C3C4C=CC(C4)C3C2=O)c1)N1CCN(c2ccccc2)CC1 (stereo unspecified)	2	-1	-3	i	2	-7	.	8
CCOC(=O)c1ccccc1NC(=O)CN(c1ccccc1C)S(C)(=O)=O	.	.	-9	i	-15	-4	4	-4
CC(C)[C@H](NC(=O)[C@@H]1Cc2ccccc2CN1C(=O)OC(C)(C)C)C(=O)NCC1CCCO1 (stereo partly specified)	8	-3	-13	i	-2	0	-15	-7
O=C(CN(c1ccccc1)S(=O)(=O)c1ccccc1[N+](=O)[O-])N1CCCC1	2	2	-8	i	10	-8	1	-2
Cc1cc(NCCN2CCOCC2)n2nc(C)c(-c3ccc(Cl)cc3)c2n1	2	0	-11	i	.	21	18	-3
O=C(CCNC(=O)c1ccc(Cl)cc1)Nc1cc(C(F)(F)F)ccc1N1CCOCC1	2	-3	.	.	10	.	-3	.
Cc1ccc(NC(=O)CSc2nnc(CNC(=O)c3cccs3)o2)cc1	0	2	4	i	-8	-11	.	-4
CC(NC(=O)C12CC3CC(CC(C3)C1)C2)c1ccc2c(c1)OCCO2 (stereo unspecified)	3	-3	-1	i	-25	.	-1	10
CC(C)CN1C(=O)c2ccc(C(=O)Nc3c[nH]c(=O)[nH]c3=O)cc2C1=O	1	4	-6	i	5	-20	-1	-9
Cc1nc(N/C(N)=N/S(=O)(=O)c2ccccc2)nc2ccccc12	-1	3	.	.	0	-15	-21	.
O=C(Nc1ccc2c(c1)OCCO2)C1CCCN(S(=O)(=O)c2cccs2)C1 (stereo unspecified)	0	0	2	i	.	-12	-9	7
COC(=O)c1ccc(/C=N/NS(=O)(=O)c2cc(C)ccc2C)cc1	-3	0	5	i	-22	3	.	-4
CCOc1nc(OCC)nc(-n2cc(-c3ccccc3)nn2)n1	2	0	-10	i	.	-11	22	-6

Additional entries follow:
SMILES	MT1-MMP act inh	MT1-MMP act inh RFP	eIF4H inh	Rce1 inh	HIV Env fusion	CSC inhib	Yeast UUG start	PABP polyA inh
CC(C)(C)C1CCC(CN2C(Nc3ccccc3)=NC[C@@H]2Cc2ccccc2)CC1 (stereo partly specified)	-4	-14	.	.	-1	107*	-4	.
O=C(COc1ccc(C(=O)c2ccccc2)cc1)NC1CCCCCC1	-7	-22	-8	i	7	-9	.	-11
Cc1c(/C=N/N2C(=O)C3C4C=CC(C4)C3C2=O)c2ccccc2n1C (stereo unspecified)	-3	1	2	i	.	5	-6	3
COc1ccc(Oc2nc(SC)nc3ccsc23)cc1	-4	-8	3	i	.	64	-16	-6
Cc1noc(C)c1C(=O)N1CCC2(CC1)Oc1ccc(F)cc1C(=O)C21CC(c2ccc(Cl)cc2)=NO1 (stereo unspecified)	17	-13	-8	i	-1	-2	-16	-1
c1ccc(Sc2cccc3ccccc23)c(CNC2=NCCN2)c1	-6	-6	-8	i	-11	6	.	-10
CCOC(=O)C1=C(C)N=C2SC(C(=O)OC)=CC(=O)N2C1c1ccc(OC)cc1 (stereo unspecified)	-13	3	5	i	1	5	-3	-2
CCOC(=O)/C(=C/c1ccc(OC(=O)c2ccccc2)cc1)C(C)=O	6	7	-4	i	-14	7	-43	2
CSc1ncc(CN2CCN(C3CCCC3)C(CCO)C2)cn1 (stereo unspecified)	1	-1	1	i	3	-4	.	-4
CN(Cc1ccc(C(F)(F)F)cc1)C(=O)C1CCC(=O)N(C2CC2)C1 (stereo unspecified)	4	5	12	i	.	-11	-27	-10
Cc1ccc(CSc2nnc(Nc3ccc(C)cc3)s2)cc1	-1	0	0	i	37	13	-7	-8
Cc1cc(NC(=O)COc2ccccc2C)no1	1	4	3	i	-24	10	.	-1
CCCCC1=CC2=C(c3ccco3)C(=O)C(C)(OC(=O)c3ccc(OC)cc3)C(=O)C2=CN1Cc1ccc2c(c1)OCO2 (stereo unspecified)	-22	4	30	i	.	-3	-8	25
COc1ccc(-c2cc([C@H]3[C@H]4C=CC[C@@H](C)[C@@H]4C(=O)N3Cc3ccccc3)ccc2F)cc1	-3	-7	-5	i	24	77*	-4	-6
Cc1nnc(NC(=O)c2ccc(S(=O)(=O)N3CCCCCC3)cc2)o1	-6	-5	4	i	.	1	-20	2
Cc1ccc(C)c(NC(=S)NCc2ccc3c(c2)OCO3)c1	-4	-2	14	i	.	-13	-20	31
Cc1ccc(S(=O)(=O)Nc2cc(=O)[nH]c3c2CCC3)cc1	3	-4	5	i	8	0	-12	13
COc1ccc(O)c(C(=O)C2c3ccccc3C(=O)N2c2ccc(C)cc2)c1 (stereo unspecified)	-9	3	1	i	-7	0	-19	11
O=C(Cn1c(=O)cnc2ccccc21)Nc1cccc(S(=O)(=O)N2CCOCC2)c1	-1	-2	.	.	7	5	-3	.
CC(=O)Nc1ccc(CN2CCCC(CO)(Cc3ccccc3C)C2)cc1 (stereo unspecified)	-4	-2	-4	i	6	0	.	2
COCCN1Cc2cccc(C(=O)NCCCN3CCCC3=O)c2C1=O	-13	-2	-10	i	0	0	-16	-8
COc1ccc(Cl)cc1NC(=O)CC(C)c1ccccc1 (stereo unspecified)	-3	0	-2	i	.	-9	.	-16
Cn1ccnc1C1CCCCN1Cc1nc(Cc2cccc(C(F)(F)F)c2)no1 (stereo unspecified)	-2	0	4	i	22	2	.	-8
COc1ccc(CC(=O)OCC(=O)NCc2ccc3c(c2)OCO3)cc1OC	0	1	.	.	-4	.	-3	.
COc1cccc(CNC(=O)CN2C(=O)COc3ccc(S(=O)(=O)N4CCOCC4)cc32)c1	0	-2	.	i	1	-7	6	.

Part of the list above, in markdown:
| structure | MT1-MMP act inh | MT1-MMP act inh RFP | eIF4H inh | Rce1 inh | HIV Env fusion | CSC inhib | Yeast UUG start | PABP polyA inh |
| --- | --- | --- | --- | --- | --- | --- | --- | --- |
| CN(Cc1ccc(C(F)(F)F)cc1)C(=O)C1CCC(=O)N(C2CC2)C1 (stereo unspecified) | 4 | 5 | 12 | i | . | -11 | -27 | -10 |
| Cc1ccc(CSc2nnc(Nc3ccc(C)cc3)s2)cc1 | -1 | 0 | 0 | i | 37 | 13 | -7 | -8 |
| Cc1cc(NC(=O)COc2ccccc2C)no1 | 1 | 4 | 3 | i | -24 | 10 | . | -1 |
| CCCCC1=CC2=C(c3ccco3)C(=O)C(C)(OC(=O)c3ccc(OC)cc3)C(=O)C2=CN1Cc1ccc2c(c1)OCO2 (stereo unspecified) | -22 | 4 | 30 | i | . | -3 | -8 | 25 |

Continuation:
SMILES	MT1-MMP act inh	MT1-MMP act inh RFP	eIF4H inh	Rce1 inh	HIV Env fusion	CSC inhib	Yeast UUG start	PABP polyA inh
CCO[C@@H]1OC(C(=O)NC2CC2)=C[C@H](C2CC2)[C@H]1CCCO	9	5	-8	i	11	3	-1	-3
CCN1CCN(S(=O)(=O)Cc2ccccc2Cl)CC1	1	3	16	i	15	-12	-7	3
COc1ccc(N2C(=O)CCC(C(=O)N3CCCCC3)C2c2ccc(OC)c(OC)c2)cc1 (stereo unspecified)	-1	4	-10	.	-25	-9	-16	11
O=C(CSCc1ccccc1Br)N/N=C/c1ccccc1C(=O)O	3	4	-2	i	-8	-4	.	-5
COC(=O)c1nnn(CC(=O)NC(=O)Nc2ccccc2F)c1C(=O)OC	4	1	-6	i	8	-6	.	-16
O=S(=O)(Nc1ccc(O)c2ccccc12)c1ccc(Br)cc1	.	.	4	i	.	36	.	34
N#Cc1ccc(CSC2=NCCN2)cc1	1	-4	5	i	0	-12	.	-12
Cc1nn(-c2ccccc2)c(C)c1C(=O)OCC(=O)N(C)C1CCS(=O)(=O)C1 (stereo unspecified)	5	5	3	.	-7	33	.	20
Cc1cccc(NC(=O)c2ccccc2C(=O)Nc2cccc(C)c2)c1	-2	-2	.	i	-7	-7	0	.
COc1ccccc1S(=O)(=O)Nc1ccc(-c2nnc3n2CCCCC3)cc1	3	13	3	i	.	15	.	2
Cc1ccc(-c2nc(SC(C)C(=O)c3c(N)n(C)c(=O)n(C)c3=O)n[nH]2)cc1 (stereo unspecified)	1	-1	.	i	-1	3	-22	.
COc1ccc(-n2c(=O)cc(N3CCN(Cc4ccccc4)CC3)[nH]c2=O)cc1	0	4	-2	i	0	-5	-3	-5
COc1ccc(NC(=O)NC2CCCCCCC2)cc1	1	-1	-7	i	-57	10	-14	5
CC(=O)C1=C(C)Nc2ncnn2C1c1cccc(Br)c1 (stereo unspecified)	0	0	-1	i	-27	-9	-17	-4
O=c1cc(CO)oc(CN2CCN(Cc3ccccc3)CC2)c1O	-23	-2	-6	i	-139	-11	-13	4
COc1ccc(NC(=O)CSCC(=O)Nc2cccc(S(=O)(=O)N3CCCCCC3)c2)cc1	3	-11	.	i	17	15	.	.
Cc1ccc(S(=O)(=O)c2c(C)nn(C(C)(C)C)c2OC(=O)C(C)C)cc1	-2	3	10	i	12	27	4	-1
O=C(COC(=O)CCC(=O)c1ccc(F)cc1)Nc1ccc(Cl)cn1	1	9	.	.	.	-11	-5	.
c1cncc(CNc2ncnc3ccc(-c4ccc5c(c4)OCO5)cc23)c1	8	5	.	.	-12	.	-14	.
COc1cc(S(=O)(=O)NCc2ccccn2)c(OC)cc1Cl	2	4	1	i	.	4	-28	-6
Cc1ccccc1Cn1cnc2c(NS(C)(=O)=O)c(C)c(C)cc21	11	-6	-12	i	-9	-12	-29	-6
COc1ccc(C(=O)N2CCN(c3nnnn3-c3ccccc3)CC2)cc1OC	2	3	-2	i	-85	-6	4	8
C=CCOc1ccc(Cl)cc1CNCCCN1CCOCC1	-3	1	3	i	.	-15	-13	11
COc1ccc(Nc2cc(C)nc(N3CCOCC3)n2)cc1	4	1	1	.	-59	.	-9	-2
CCOC(=O)c1cc(-c2ccccc2)n(CCC(=O)O)c1C	9	0	-10	i	.	-5	-9	0
COC(=O)C(C)Sc1nc2c(c(=O)[nH]c(=O)n2C)n1CCCc1ccccc1 (stereo unspecified)	-1	3	-12	i	.	-1	12	4
COc1ccccc1N1CCN(CCCn2c(=S)[nH]c3ccccc3c2=O)CC1	4	-2	-16	i	-6	-2	-12	-3
CC(C)(C)C(=O)NNC(=O)CCCOc1ccc(Cl)cc1Cl	-5	0	-13	.	.	-13	-18	7

Screening data from PubChem.
